AmpC nodet inh: blocks E. coli AmpC beta-lactamase in absence of detergent. AmpC nitrocefin hydrolysis, absorbance 480 nm, no detergent; potencies from a single point are estimates. Potency, µM (series often up to 28.7 µM), inactives show top-dose activity change, negative = inhibition. 71,000 tested, 1.8% active; active = falling curve, for most hits resting on a single point; inconclusive = weak or doubtful change; inactive = flat or rising curve; further: % of control where 0% means no effect; about half of the hits show no inhibition at the top dose; a quarter of the inactives give rising signals
Target sequence (P00811 whole entry, looked up): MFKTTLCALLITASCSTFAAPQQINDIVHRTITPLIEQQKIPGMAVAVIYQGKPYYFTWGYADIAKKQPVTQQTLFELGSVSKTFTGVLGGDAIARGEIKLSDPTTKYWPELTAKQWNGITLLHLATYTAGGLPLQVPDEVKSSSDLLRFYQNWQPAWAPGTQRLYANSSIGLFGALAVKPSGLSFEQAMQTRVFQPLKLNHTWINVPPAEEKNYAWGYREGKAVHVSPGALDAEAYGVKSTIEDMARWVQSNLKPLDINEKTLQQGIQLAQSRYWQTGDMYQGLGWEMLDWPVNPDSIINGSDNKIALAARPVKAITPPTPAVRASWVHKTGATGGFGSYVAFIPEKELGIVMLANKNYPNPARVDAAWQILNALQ
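AmpC, 20 mM phosphate pH 7.0; 15 min cpd preinc, RT; start with nitrocefin (800 uM stock); A480 kinetic read, 20 s intervals, 4 min. No-enzyme wells = negative control.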
* hit, by the source's call; u = inconclusive; & = joins results of further samples; [ ] = dose if it differs, or a comment. Potency means the concentration at half of the fitted maximal effect. A portion of the library (hit frequency here may not be typical).

SMILES	AmpC nodet inh
Cc1ccccc1-n1c(Cn2c(=O)sc3ccccc32)nnc1SCC(=O)Nc1nccs1	10%
O=C(C1CCC1)N(CCc1ccccc1)Cc1nc2ccccc2c(=O)[nH]1	19%
O=C(Cn1cnc2c(cnn2-c2ccc(F)cc2)c1=O)OCc1ccccc1	-7%
O=C(Cc1c(F)cccc1Cl)NCC1CCCO1 (centres undefined)	-3%
CN1CCN(C(=O)c2cc3c(ccc4ccccc43)oc2=O)CC1	4%
CCOc1ccc2c(c1)sc1nc(C(=O)OC)cc(=O)n12	-5%
CN(C1CCCCC1)S(=O)(=O)c1ccc(S(=O)(=O)N2CCCC2)cc1	39%
Cc1c(S(=O)(=O)Nc2ccc3c(c2)OCCO3)c(=O)n(C)c(=O)n1C	2%
COc1ccc2nc(NC(=O)c3cnccn3)sc2c1	2%
O=C(Cn1nnc(-c2ccc(S(=O)(=O)N3CCCC3)cc2)n1)Nc1ccccc1-n1cccc1	-7%
CN1C(=O)N(C)C2(c3ccccc3)NC(=O)NC12c1ccccc1 (centres undefined)	-16%
CCOC(=O)C1CCN(C(=O)C2CCN(S(=O)(=O)c3c(C)noc3C)CC2)CC1	48%
Cc1occc1C(=O)Nc1cccc(C(=O)NCc2ccccc2)c1	-9%
O=C1CC(c2ccccc2)CC(O)=C1C=NCCCN1CCOCC1 (centres undefined)	8%
C=C1CSc2nc(=O)c3c4c(sc3n21)CCCC4	11%
CCOC(=O)c1c(C)[nH]c(C(=O)COC(=O)c2ccccc2NC(=O)c2ccco2)c1C	39%
COc1cccc(-c2nc(S(=O)(=O)c3ccccc3)c(N3CCOCC3)o2)c1	32%
O=c1c(-c2cccs2)nc2cnc(N3CCNCC3)nc2n1C1CC1	39%
COc1cccc(C(CC(=O)NCCN2CCOCC2)NS(=O)(=O)c2ccc(C)cc2)c1OC (centres undefined)	11%
O=C(COc1ccccc1)Nc1nn[nH]n1	-7%
CCCn1nc(NS(C)(=O)=O)c2cc3cccc(C)c3nc21	-11%
O=C(CSCSCC(=O)NCC1CCCO1)NCC1CCCO1 (centres undefined)	-8%
CCNc1nc(NCC)nc(OCCNS(=O)(=O)c2cc(C)ccc2C)n1	25%
O=C(NC[P+](=O)O)OCc1ccccc1	-11%
COCCCn1c2nc3ccccc3nc2c2c(=O)n(-c3ccccc3OC)cnc21	103%
CCCc1cc(=O)n2[nH]c(C)nc2n1	-8%
COc1cccc(Oc2cn[nH]c2-c2ccc(O)cc2O)c1	-22%
CCCCn1c(SCC(=O)N2CC(=O)Nc3ccccc32)nnc1-c1ccoc1C	11%
CCOC(=O)C1C(=O)NC(N2CCCCC2)=NC1c1ccco1 (centres undefined)	2%
Cc1cccnc1NCC(O)COc1ccccc1 (centres undefined)	-1%
COc1cc(OC)cc(C(=O)Nn2c(C)nc3ccccc3c2=O)c1	1%
CC(C)COC(=O)NCCOC(=O)Nc1cccc(Cl)c1	11%
O=C(OCC(=O)N1c2ccccc2Sc2ccccc21)C1CC(=O)N(Cc2ccco2)C1 (centres undefined)	152%
CCN(CC)C(=O)C1CC(c2ccc(OC)cc2)=NO1 (centres undefined)	4%
COc1ccc(-c2nc3nc(C)cc(C)n3n2)cc1	12%
COc1ccc2c(c1)c(C(=O)OCCN(C)C)c(C)n2C	6%

The list goes on; it opens with the three that closed the last part.
SMILES	AmpC nodet inh
CCN(CC)C(=O)C1CC(c2ccc(OC)cc2)=NO1 (centres undefined)	4%
COc1ccc(-c2nc3nc(C)cc(C)n3n2)cc1	12%
COc1ccc2c(c1)c(C(=O)OCCN(C)C)c(C)n2C	6%
N#CCSc1nnc2sc3ccccc3n12	-2%
CCC1(C)Cc2c(C#N)c(N)n(N)c(=S)c2CO1 (centres undefined)	-3%
CCc1cccc(NC(=O)c2ccc(NS(=O)(=O)c3c(C)noc3C)cc2)c1	u
C=CCNC(=O)CCCCCNS(=O)(=O)c1ccc(OC)cc1	-4%
O=C(Cn1cnc2ccccc2c1=O)NCC(=O)N1CCC2(CC1)OCCO2	2%
CC(C)Oc1c(Cl)cc(CNC(C)(C)CO)cc1Cl	-4%
O=C(NC1CCCCCC1)C1CCN(C(=O)Cc2ccccc2)CC1	30%
Cc1nn(C)c(C)c1S(=O)(=O)N1CCCC(C(=O)NCC2COc3ccccc3O2)C1 (centres undefined)	93%
COc1ccc(-c2csc(N(CC3CCCO3)C(=O)c3cccs3)n2)cc1 (centres undefined)	27%
CCOC(=O)c1cc(NC(=O)N2CCCc3ccccc32)c(C)nc1C	61%
O=C(CN1CCC(n2nnc3cc(C(F)(F)F)ccc32)CC1)NCc1cccs1	76%
COc1ccc(CCNC(=O)C2CCN(S(=O)(=O)c3cc(OC)ccc3OC)CC2)cc1	63%
Cc1cc2nc(-c3cccnc3SCC(=O)NCc3ccco3)[nH]c2cc1C	28%
CCOc1ccc(Nc2cc(C)nc3nc(C)nn23)cc1	27%
c1cc2c3c(cccc3c1)C(N1CCCCC1)=N2	1%
CC(C)C[C@H](NC(=O)NC(C)C)C(=O)O	6%
CC1(C)CC(C)(O)P(=O)(c2ccccc2)O1 (centres undefined)	-5%
CC1Cc2ccccc2N1C(=O)c1cnsn1 (centres undefined)	1%
COc1ccc(C2(O)CCN(Cc3nnnn3Cc3ccc(C)cc3)CC2)cc1	158%
CN1CCN(c2ncc3nc(-c4cccc(C#N)c4)c(=O)n(CCc4ccccc4)c3n2)CC1	95%
COc1ccc(NC(=O)CCNS(=O)(=O)c2ccc3c(c2)c(=O)n(C)c(=O)n3C)cc1	-8%
COCC(=O)NC(c1ccccc1)c1ccccc1	1%
Cc1nc2c(C(=O)NCc3ccccc3)c[nH]n2c(=O)c1Cl	6%
N=C(N)SCCc1cnc[nH]1	-15%&1%
CCOc1ccc(NS(=O)(=O)c2ccc3[nH]cc(C(=O)NCC4CCCO4)c(=O)c3c2)cc1 (centres undefined)	24%
CC(=O)c1c(C)[nH]c(C(=O)N2c3ccccc3CC2C)c1C (centres undefined)	9%
O=c1c2[nH]c3ccccc3c2ncn1CCCn1ccnc1	2%
CCOc1ccc(/C(=N\O)C(C)NO)cc1 (centres undefined)	1%
CC(C)CCn1c(=O)c2ccccc2n2c(CN3C(=O)NC4(CCC(C)CC4)C3=O)nnc12 (centres undefined)	73%
COC(=O)c1[nH]c2ccccc2c1NC(=O)CN1CCN(C(=O)c2ccco2)CC1	37%
Cc1ccc(O)c(NC(=O)C2CC(c3c(F)cccc3Cl)=NO2)c1 (centres undefined)	-11%
CCOC(=O)c1cnc(=O)[nH]c1C	-1%
CCOC(=O)C1C2C=CC3(CN(c4ccc(Cl)c(F)c4)C(=O)C13)O2 (centres undefined)	2µM*[single pt active]
CCC(CC)C(=O)NCCc1cc2c(OC)ccc(OC)c2[nH]c1=O	4%
Cc1ccccc1Nc1nc(N)nc(CSc2nnnn2-c2ccccc2)n1	19%
Cc1ccc2nc(N3CCN(Cc4ccc(F)cc4)C3=O)c(C)cc2c1	37%
Cc1ccc(-c2nnc3sc(-c4ccc5c(c4)OCCO5)nn23)cc1	49%
O=C1C[C@H]2OCCC=C3CN4CC[C@@]56c7ccccc7N1[C@@H]5[C@H]2[C@H]3C[C@@H]46	-9%
Cn1c2ccc(Cl)cc2c2nc3ccccc3nc21	6%
O=C1NC2=C(C(=O)CCC2)C(c2ccc3ncccc3c2)N1 (centres undefined)	-7%
COc1ccc(CN(Cc2cccnc2)S(=O)(=O)c2ccc(-n3cnnn3)c(C)c2)cc1OC	121%
COc1ccccc1C(=O)N1CCN(C2CCN(Cc3ccccc3)CC2)CC1	12%
O=C1c2ccccc2C(Nc2ccc3c(c2)OCCO3)N1Cc1ccccc1 (centres undefined)	20%
Cc1ccc(C)c(OCC(=O)Nc2nonc2NC(=O)COc2cc(C)ccc2C)c1	-22%
COc1ccc(NC(=O)NCc2ccccn2)cc1OC	-2%
CCCC(=O)Nc1cccc(-c2nc3cc(C)c(C)cc3o2)c1	3%
COc1ccccc1N1CCN(C(=O)c2ccc(S(=O)(=O)N3CCCCC3)cc2)CC1	126%
COc1ccc(Cl)c(NC(=O)Nc2c(C)n(-c3ccccc3)c(=O)n2C)c1	8%

Pulled by structure from above (five):
SMILES	AmpC nodet inh
CCCC(=O)Nc1cccc(-c2nc3cc(C)c(C)cc3o2)c1	3%
O=C1NC2=C(C(=O)CCC2)C(c2ccc3ncccc3c2)N1 (centres undefined)	-7%
COc1ccccc1C(=O)N1CCN(C2CCN(Cc3ccccc3)CC2)CC1	12%
COc1ccc(Cl)c(NC(=O)Nc2c(C)n(-c3ccccc3)c(=O)n2C)c1	8%
COc1ccc(NC(=O)NCc2ccccn2)cc1OC	-2%

The listing picks up, repeating the six entries before the break.
SMILES	AmpC nodet inh
O=C1c2ccccc2C(Nc2ccc3c(c2)OCCO3)N1Cc1ccccc1 (centres undefined)	20%
Cc1ccc(C)c(OCC(=O)Nc2nonc2NC(=O)COc2cc(C)ccc2C)c1	-22%
COc1ccc(NC(=O)NCc2ccccn2)cc1OC	-2%
CCCC(=O)Nc1cccc(-c2nc3cc(C)c(C)cc3o2)c1	3%
COc1ccccc1N1CCN(C(=O)c2ccc(S(=O)(=O)N3CCCCC3)cc2)CC1	126%
COc1ccc(Cl)c(NC(=O)Nc2c(C)n(-c3ccccc3)c(=O)n2C)c1	8%
COc1ccc(-c2nc3cnc(N(C)C)nc3n(Cc3cccs3)c2=O)cc1	4%
COC(=O)c1c(-c2ccco2)csc1NC(=O)C1CC=CCC1C(=O)O (centres undefined)	u
CN(C)CCNc1nc2c(c(=O)[nH]c(=O)n2C)n1CC(O)COc1ccc(Cl)cc1 (centres undefined)	-4%
CCOC(=O)C1CCN(S(=O)(=O)c2ccc(C(=O)OC)cc2)CC1	5%
CCOC(=O)c1sc(NC(=O)C2CC=CCC2C(=O)O)nc1C (centres undefined)	4%
COc1ccc(C)cc1NC(=O)C1CCCN(S(=O)(=O)c2c(C)noc2/C=C/N(C)C)C1 (centres undefined)	25%
Nc1nnc2c(n1)CCCC2	0%
COCC(=O)N(CCc1ccc(OC)c(OC)c1)Cc1nc2ccccc2c(=O)[nH]1	6%
Cc1ccc(Cn2c(=O)cc(C(=O)O)c3ccccc32)cc1	-6%
CCOC(=O)c1ccc(NC(=O)CSc2nnc(Cc3cccs3)n2C)cc1	30%
CC(C)c1ccc(NC(=O)C(c2ccc3c(c2)OCO3)N2CCC3(CC2)OCCO3)cc1 (centres undefined)	129%
COCCN1Cc2cccc(C(=O)Nc3ccc4c(c3)OCCO4)c2C1=O	-12%

6 successive compounds out of the list so far, quoted:
SMILES	AmpC nodet inh
CCOC(=O)c1sc(NC(=O)C2CC=CCC2C(=O)O)nc1C (centres undefined)	4%
COc1ccc(C)cc1NC(=O)C1CCCN(S(=O)(=O)c2c(C)noc2/C=C/N(C)C)C1 (centres undefined)	25%
Nc1nnc2c(n1)CCCC2	0%
COCC(=O)N(CCc1ccc(OC)c(OC)c1)Cc1nc2ccccc2c(=O)[nH]1	6%
Cc1ccc(Cn2c(=O)cc(C(=O)O)c3ccccc32)cc1	-6%
CCOC(=O)c1ccc(NC(=O)CSc2nnc(Cc3cccs3)n2C)cc1	30%

Next section
SMILES	AmpC nodet inh
CCOc1cccc2cc(-c3cn4cc(C)ccc4n3)c(=O)oc12	2%
O=C1c2cccnc2C(=O)N1Cc1ccco1	-6%
Cc1c(C)n(C)c2ccc(C(=O)NCc3cccs3)cc12	4µM*[single pt active]
CC(C)(CNC(=O)c1cc2ccccc2o1)N1CCOCC1	-7%
c1ccc2c(NC3CCNCC3)nc(-c3ccoc3)nc2c1	16%
N#Cc1cccc(NC(=O)N2CCCC3(CCN(C(=O)Oc4ccccc4)CC3)C2)c1	42%
CN(C)C(=O)Oc1cccc([N+](C)(C)C)c1	-4%[12.8 µM]
C=CCn1c(SCC(=O)NCC(=O)OCC)nnc1-c1ccccn1	11%
CCOC(=O)c1c(NC(=O)C(F)(OC)C(F)(F)F)sc2c1CCN(C)C2 (centres undefined)	69%
CCc1ccc(NC(=O)c2ccc3c(c2)C(=O)N(Cc2ccco2)C3=O)cc1	u
CCSc1nc(=O)n(-c2ccccc2)c(C)c1C(C)=O	9%
O=C(COc1ccc(Cl)cc1)N1CCN(c2ncccn2)CC1	3%
Cc1ccc(-c2nc3cc(N)ccc3o2)c(C)c1	-20%
C[C@H]1O[C@@H](CC(=O)O)Cc2c1c(O)c1c(O)cc(-c3cc(=O)c4c(=O)c5c(c(=O)c=4c3=O)C[C@H](CC(=O)O)O[C@@H]5C)c(O)c1c2O	56%[5.75 µM]
Cc1c(C(=O)NCCc2ccccc2)oc2ccc(S(=O)(=O)N3CCC4(CC3)OCCO4)cc12	82%
CC1=CC(C)C2C(=O)N(CCC[N+](C)(C)C)C(=O)C2C1 (centres undefined)	4%
CN1CCc2cc3c(cc2C(=O)Cc2ccc4c(c2C1)OCO4)OCO3	13%
Cc1ccccc1Nc1nn2c(=O)c3ccccc3nc2s1	2%
O=C(O)c1ccc(OCc2occc2C(=O)O)cc1	-3%
O=c1cc(C2CCNCC2)[nH][nH]1	6%
CN(Cc1cccs1)S(=O)(=O)c1cccs1	-9%
COc1ccc(C)cc1NC(=O)CSc1nnc(-c2ccco2)n1Cc1ccco1	70%
O=C(c1ccc(=O)[nH]c1)N(Cc1ccco1)C1(C(=O)NC2CCCCC2)CCCCC1	16%
NC(=O)C1CCN(C(=O)CSc2nc3c(c(-c4ccccc4)n2)CCCC3)CC1	81%
O=S(=O)(c1ccccc1)N1CCC2(CC1)CN(C(c1ccccc1)c1ccccc1)C2	20%
CCOc1ccc2nc(-c3ccc(OC)c(OC)c3)cc(C(=O)O)c2c1	-16%
Nc1cccc2c(=O)[nH][nH]c(=O)c12	0%
CCOC(=O)c1ccc(NC(=O)Cn2nnc(-c3ccccc3C)n2)cc1	-9%

Screening results from PubChem BioAssay.
